# Screening data: PubChem BioAssay, ICCB-Longwood Screening Facility, Harvard Medical School
# AID504770 – growth inhibition of E. coli YBA685, primary screen, V. cholerae RctB inhibitors. E. coli YBA685 rctB-dependent plasmid, OD600 growth, 3 h; hits give low values. z-score (no concentration beside the values). 130,000 tested, 0.27% active. AID 504770, 2011;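 active = z-score under -2 on both plates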;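 note: wells of about 30 µL received 100 nL stock; score is relative to mean and SD of the test wells; the first replicate is given; strong numbers were not always called active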
# Ba CapD inh – Bacillus anthracis CapD inhibitors, primary screen, biochemical, fluorescence intensity. purified CapD enzyme, fluorescence intensity read-out; hits give low values; some hits fall short of the stated cut. CapD gamma-glutamyltranspeptidase (Bacillus anthracis Ames Ancestor). z-score (concentration not given with the values). 140,000 tested, 0.23% active. AID 492967, 2010;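 active = z-score under -4 in either of two replicates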;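 note: stock transfer was 100 nL into about 40 µL; score is relative to mean and spread of the plate; one replicate is shown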
# Numbers without * were called inactive; · = no result given. Some of the compounds tested (hit frequency here may not be typical).
compound | Ba CapD inh | AID504770
O=C(C1COc2ccccc2O1)N1CCc2ccccc21 (centres undefined) | · | 0.35
Cc1cccc(OCC(=O)NC(=S)Nc2ccc(-c3nc4ccccc4o3)cc2)c1 | 2.82 | 0.35
COc1ccccc1C(=O)COC(=O)C1CCN(S(=O)(=O)c2cccs2)CC1 | · | -0.2
O=C(NC1CCCc2ccccc21)c1cc(C2CC2)[nH]n1 (centres undefined) | -0.015 | 0.35
COCC(C)Nc1nc2c(s1)CCCC2 (centres undefined) | · | 0.4
Cc1ccc(-c2cn3nc(C)c(C)nc3n2)cc1 | -0.165 | ·
COc1cc(OC)nc(COc2ccc(C(=O)N3CCN(C(c4ccccc4)c4ccccc4)CC3)cc2)n1 | -0.565 | ·
O=C(O)c1ccc(N=C2NC(=O)C(CO)(CO)S2)cc1 | 1.16 | 0.35
Cc1c(Cl)cccc1NC(=O)Nc1cccc(Cn2cccn2)c1 | 0.5 | 0.5
CCOC(=O)NC12CC3CC(CC(C3)C1)C2 | 0.145 | -1.05
COc1ccc(CCNC(=O)Cn2c(=O)oc3ccccc32)cc1OC | -0.53 | -0.95
CCCCCCCCOC1OC(COC(C)=O)C(OC(C)=O)C(OC(C)=O)C1NC(C)=O (centres undefined) | -0.03 | ·
COC(=O)c1ccccc1NC(=O)c1sc2ncn(CC(=O)Nc3cccc(C(F)(F)F)c3)c(=O)c2c1C | -0.42 | ·
Cc1cc2nc3s/c(=C/c4ccc(N5CCN(C)CC5)c([N+](=O)[O-])c4)c(=O)n3c2cc1C | -0.235 | ·
COc1cc(C2NC(=O)NC(C)=C2C(=O)OCC(F)(F)F)ccc1OCc1ccccc1 (centres undefined) | -0.305 | ·
CCN(CC)c1ccc(NC(=O)c2ccccc2C(=O)O)cc1 | 0.295 | 0.8
Cc1cc(C(F)(F)Cl)n2nc(-c3sccc3-n3c(C)ccc3C)cc2n1 | -0.885 | ·
CCOC(=O)Cn1cc(I)c(=O)[nH]c1=O | 0.155 | 0.1
Cc1nc(C(F)(F)F)c(C(=O)NC(=O)Nc2ccc(Cl)cc2Cl)s1 | -0.11 | ·
Cc1ccc(Cc2ccc(NN)nn2)cc1 | -0.165 | -0.5
NCCNC(=O)CCc1n[nH]c(=O)c2ccccc12 | · | -0.75
COC(=O)c1ccc(OCC(O)CN2C(C)(C)CC(O)CC2(C)C)cc1 (centres undefined) | -0.06 | -0.45
Cc1ccc2c(c1)N(CC(=O)N1CCCC1)C(=O)c1cccnc1O2 | 0.28 | 0.5
COc1ccc(NC(=O)CC(c2ccc(F)cc2)c2ccco2)cc1 (centres undefined) | -0.62 | -0.55
O=C1CCC(=O)N1CCCn1c2ccccc2c2nc3ccccc3nc21 | -0.615 | -1.9
CCOC(=O)c1c[nH]c(=O)cc1O | 0.825 | -0.1
COC(=O)c1c(-c2c(F)cccc2Cl)noc1/C=C/Nc1ccccc1 | 0.995 | ·
CS(=O)(=O)N(CC(=O)N1CCCC1)Cc1ccc(F)cc1 | 0.15 | -0.2
CCOC(=O)C1CCN(c2ncnc3c2cnn3-c2ccc(OC)cc2)CC1 | 0.505 | ·
O=C(/C=C/c1ccccc1)C1=C(O)C(=O)N(c2ccccc2)C1c1ccccc1 (centres undefined) | -1.25 | -0.1
CCOC(=O)c1c[nH]c2ccc(OC)cc2c1=O | 13.5 | -0.9
Cc1nc(-c2cccs2)cs1 | 3.66 | -0.2
Nc1nc(SCC(=O)NCCN2CCOCC2)nc2sc3c(c12)CCC3 | 0.835 | -0.75
CCN(CC)C(=S)SCc1cn2cccc(C)c2n1 | 0.39 | 0.1
COC(=O)c1ccc(CSCC(=O)Nc2ccccc2)cc1 | -0.025 | -0.85
CCOc1ccc(CN2CCN(Cc3ccco3)CC2)cc1 | 0.19 | -0.5
COC(=O)c1ccc(C(=O)OC)c(N=CC2=C(O)CC(C)(C)CC2=O)c1 | 10.8 | -0.55
Cc1c(C(=O)CN2C(=O)COc3ccc(Cl)cc32)c2ccccc2n1C | · | -0.3
CONc1nc(NC(C)(C)C)nc(OCC#N)n1 | · | -0.35
COc1ccc(-n2c(=O)c3c(n4cnnc24)-c2ccccc2CC32CCCC2)cc1 | 0.055 | ·
COc1ccc(-c2oc(NC(C)=O)c(C#N)c2-c2ccc(OC)cc2)cc1 | 1.64 | ·
COc1ccc(N2CCN(C(=O)CN3CC=C(c4ccccc4)CC3)CC2)cc1 | · | 1.25
N#Cc1ccc(-c2ccc(F)cc2)n(Cc2ccc(Cl)cc2Cl)c1=O | 0.24 | ·
Cc1cc(N2CCOCC2)ccc1/C=N/n1cnnc1 | 3.55 | -0.9
N#CC1(O)CCN(Cc2ccccc2)CC1 | -0.245 | ·
Cc1cc(=O)n(CC(=O)Nc2ccc3c(c2)OCO3)c2c1c(C)nn2-c1cccc(F)c1 | 0.135 | 0.45
COc1ccc(C(=O)CSc2nnc(C)s2)cc1OC | -0.275 | -1.3
O=C(NNC(=O)c1ccc(-c2ccccc2)cc1)OCCc1ccc([N+](=O)[O-])cc1 | 4.85 | ·
CCc1c(C)sc2[nH]c(=S)n(CC)c(=O)c12 | · | 3.1
COc1ccc(/C=C2\SC(=O)N(CCNC(=O)C3CC(=O)N(c4ccc5c(c4)OCCO5)C3)C2=O)cc1OC (centres undefined) | · | 0.25
OCc1ccc(OCCOCCOc2ccc(Cl)c3cccnc23)cc1 | 49.8 | -0.7
CC(NC(=O)CSc1nc(N)cc(=O)[nH]1)c1ccccc1 (centres undefined) | -0.51 | 0.35
COc1cc(-c2nnc(COC(=O)[C@@H](NS(=O)(=O)c3ccccc3)C(C)C)o2)cc(OC)c1OC | · | 0.05
Cc1cccc(CN2CCN(C(=O)NC(C)C(=O)Nc3ccc([N+](=O)[O-])cc3)CC2)n1 (centres undefined) | -0.485 | ·
CC(C)(C)c1cc2c(c(C(C)(C)C)c1)OCN(CC(=O)O)C2 | -0.475 | 0.05
COC(=O)C1=CN(C(C)C)C=C(C(=O)OC)C1c1cccc(Br)c1 | 80.6 | -0.2
COC(=O)c1ccc(N2C(=O)C(C)SC2c2ccccc2)cc1 (centres undefined) | 0.08 | 0
CC1=CC(=C2C(=O)NC(=S)NC2=O)C=C(C(F)(F)F)N1CCN(C)C | -0.255 | -0.1
O=C(Cc1ncc(C(F)(F)F)cc1Cl)Nc1ccc(N2CCOCC2)cc1 | 0.125 | -0.7
Cn1nc(Oc2ccc3ccc(=O)oc3c2)c(=O)n(C)c1=O | · | 1.9

# More results follow.
compound | Ba CapD inh | AID504770
Nc1ncnc2nc(SCc3nc4ccccc4n3Cc3ccccc3)[nH]c12 | 5.87 | -1
COc1cc(/C=C2\Sc3ccccc3C2=O)cc(Br)c1O | -0.59 | ·
CCCC(=O)Nc1nc2ccc(C(=O)OCC)cc2s1 | -0.31 | -0.95
N#CSc1cc(SC#N)c(N)nc1N | 4.38 | 1.3
c1ccc(CCNc2ncnc3scc(-c4ccccc4)c23)cc1 | -0.17 | 2.3
S=c1oc2ccccc2n1CN1CCN(c2ccccn2)CC1 | · | -1.8
CC1(C)NC(=O)N(CN2C(=O)NC(C)(C)C2=O)C1=O | 0.225 | -0.4
COC(=O)NCc1cc2cc(Cl)ccc2[nH]1 | -0.05 | -0.35
O=C1CCC(Sc2ccccc2C(=O)O)N1 (centres undefined) | -0.795 | 0.4
Nc1nonc1NC(=O)CSc1ccc(Cl)cc1 | 0.36 | -0.25
CCN1C(=O)/C(=C\c2ccccc2)SC1=S | 0.24 | 2.05
Cc1cccc(-n2nc3c(c2NC(=O)c2ccc(S(=O)(=O)N4CCOCC4)cc2)CSC3)c1C | -0.685 | ·
O=C(O)c1ccccc1N=Cc1ccco1 | 29.9 | -0.85
CCCNS(=O)(=O)c1cc(Cl)ccc1OC | 0.465 | -0.5
OCc1nc2ccccc2n1CC(O)Cn1ccc2ccccc21 (centres undefined) | 0.455 | 1.05
COC(=O)c1ccc(NC2SC(=O)NC2=O)cc1 (centres undefined) | -0.1 | -0.3
COc1ccc(C(=O)c2c[nH]c(C(=O)NCCCN3CCOCC3)c2)cc1 | -0.29 | ·
c1ccc(C2C/C(=N\n3cnnc3)c3ccccc3O2)cc1 (centres undefined) | 5.88 | 1
OCCn1nnnc1NCc1ccc(Br)cc1 | 0.275 | -0.55
O=C1COc2ccc(C(=O)CSc3nnc(-c4ccoc4)c(-c4ccoc4)n3)cc2N1 | · | 1.2
O=C(c1ccc(Cl)cc1)C(Oc1ccc(Cl)cc1)n1cncn1 (centres undefined) | 0.355 | -0.7
Cc1ccccc1-n1nc(C)c2c1CC(C)(C)CC2=O | · | -0.05
CCOc1ccc2nc(NCCNC(=O)Nc3ccc(SC)cc3)c(C#N)cc2c1 | · | 1.9
CC(C)C(NC(=O)c1ccc(F)cc1)C(=O)OCc1ccccc1 (centres undefined) | -0.68 | 1.75
Cn1c(CCC(=O)N2CCN(c3ccc(C(F)(F)F)cn3)CC2)nc2ccccc21 | 1.68 | ·
N#Cc1ccccc1Cn1c(=O)n(Cc2ccc(C(=O)NCc3ccco3)cc2)c(=O)c2sccc21 | -0.72 | 0.35
c1ccc2[nH]c(-c3nc4ccccc4s3)nc2c1 | -0.195 | 0.05
COc1cccc(CNC(=O)c2ccc3nc(-c4ccccc4)c(-c4ccccc4)nc3c2)c1 | 0.28 | ·
C=CCn1cc(C=C2C(=O)NC(=O)NC2=O)c2ccccc21 | -1.13 | 1.3
C=CCN1C(=O)C(Cc2c[nH]c3ccccc23)NC1=S (centres undefined) | -0.235 | -0.9
CN(CCO)CCCCOc1ccc2c(c1)C(=O)c1cc(OCCCCN(C)CCO)ccc1-2 | -0.045 | ·
CCOC(=O)C1C(=O)C=C(c2cccs2)CC1c1ccc(F)cc1 (centres undefined) | 15.1 | 1.25
CCOC(=O)c1cnn(-c2c(Cl)cc(Cl)cc2Cl)c1-c1ccccc1 | 0.08 | ·
COCc1c(C(=O)OCc2cc(Cl)c3c(c2)OCO3)oc2ccccc12 | · | 0.95
CCCCC(=O)NC(c1ccc(N(C)C)cc1)c1ccc2cccnc2c1O (centres undefined) | -0.06 | -0.95
Cn1c(SCC(=O)N(c2ccccc2)C2CCCCC2)nnc1-c1ccco1 | 3.94 | -0.1
O=C(CC1Sc2ncnn2C1=O)Nc1ccccc1 (centres undefined) | 0.4 | -0.4
Cc1ccc(Oc2ccc(COC(=O)c3ccc(Cl)cc3)cc2[N+](=O)[O-])cc1 | -0.79 | ·
COc1cc(OC)c(-c2c(C#N)c(N)n3c(nc4ccccc43)c2C#N)cc1OC | -0.39 | ·
CCN(CC)c1ccc(CNC(CC(=O)O)c2cccs2)cc1 (centres undefined) | 0.305 | 1.05
C=Cn1cc[n+](CC(=O)c2ccc(OC)cc2)c1 | · | -0.65
Nc1nonc1/C(=N/O)N1CCCCC1 | -0.125 | -0.4
COc1ccc2nc(NC(=O)CN3CC4CC(C3)c3cccc(=O)n3C4)sc2c1 (centres undefined) | -0.19 | 1.3
CCN(Cc1ccccc1)C(=O)c1nc(-c2ccc(Cl)cc2)n2c1CCCCC2 | -0.515 | -0.75
CC(C)(C)c1ccc(OCc2ccc(-c3nnco3)cc2)cc1 | 0.275 | 0.35

# Compound profiles (already shown). Order of values: Ba CapD inh | AID504770
# O=C(CC1Sc2ncnn2C1=O)Nc1ccccc1 (centres undefined) reads 0.4 | -0.4
# CCN(CC)c1ccc(CNC(CC(=O)O)c2cccs2)cc1 (centres undefined) reads 0.305 | 1.05
# COc1cc(OC)c(-c2c(C#N)c(N)n3c(nc4ccccc43)c2C#N)cc1OC reads -0.39 | ·
# COCc1c(C(=O)OCc2cc(Cl)c3c(c2)OCO3)oc2ccccc12 reads · | 0.95

# Continuation:
compound | Ba CapD inh | AID504770
CCCN1CCC(NC2CCCc3ccccc32)CC1 (centres undefined) | 0.09 | -0.95
CCc1c(O)nc(SCC(=O)N2CCOCC2)n(-c2ccccc2C)c1=O | -0.055 | -0.75
FC(F)(F)c1ccc(-c2ncc(-c3cnccn3)c(-c3ccccc3)n2)cn1 | -0.48 | ·
CC1CCN(S(=O)(=O)N2CCC(C(=O)O)CC2)CC1 | 0.43 | 0.35
O=C(CCc1nc2ccccc2s1)N1CCc2ccccc21 | · | -0.35
CSc1nc2nc(C)cc(=O)n2[nH]1 | 0.15 | 0.15
CC(C)CNC(=O)COc1ccc2ccccc2c1 | 0.83 | -0.2
Cc1cc(/C=N/N2CCN(C)CC2)c(C)n1CC(F)(F)F | · | -0.5
O=C(CCN1C(=O)S/C(=C\c2cccs2)C1=O)Nc1nccs1 | · | 1.65
Cc1cc2nc(-c3cccnc3Cl)n(Cc3ccccc3C)c2cc1C | 1.29 | ·
N#Cc1c(N)n[nH]c1CCCNC(=O)C1c2ccccc2Oc2ccccc21 | · | 0
CCC(C(=O)Nc1cccc(Cl)c1)N1C(=O)C2(OCCCO2)c2ccccc21 (centres undefined) | -1.97 | -0.45
N#Cc1cc(-c2cccc(C(F)(F)F)c2)cn(Cc2ccccc2)c1=O | 71.4 | ·
O=C1N=c2ccc([N+](=O)[O-])cc2=C1c1sc(=Nc2ccccc2)n(-c2ccccc2)c1O | -0.12 | ·
O=C(CCCN1C(=O)c2ccccc2C1=O)Nc1ccc(S(=O)(=O)N2CCOCC2)cc1 | 0.18 | 1.05
Clc1ccc(CSc2nc3ncccc3[nH]2)cc1Cl | 3.81 | -0.3
COc1ccc(Br)cc1/C=N/c1ncn[nH]1 | 1.64 | 0.05
CC(Oc1ccc(C=C2C(=O)c3ccccc3C2=O)cc1)C(=O)O (centres undefined) | 0.205 | -0.65
COc1cc2ncnc(SCC(=O)NN)c2cc1OC | 5.04 | -0.95
COc1ccc(/C=C2/SC(=Nc3ccccc3Cl)NC2=O)cc1 | -2.37 | ·
